Rango release inh: inhibition of RanGTP-driven Rango-importin beta dissociation; Potency, µM (highest dose often 46.1 µM), for inactives: at the highest dose activity change, negative = inhibition; 340,000 compounds, 0.071% hits; Biochemical FRET Rango-importin beta, RanGTP-induced dissociation; AID 540253; active means falling FRET ratio curve, often poorly fitted, with flat reads before Ran was added; inconclusive means other falling curves, or compound fluorescence or quenching; inactive means flat or rising ratio curve;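 further: potency means the concentration at half of the fitted maximal effect; % of control where 0% means no effect; nearly all actives have a fitted effect of over 45% in size; -100% = wells without RanGTP and RCC1; the record marks most hits as doubtful in a second field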
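Recombinant Rango FRET biosensor (EYFP–snurportin 1 IBB–cerulean CFP10) at 0.1 uM premixed with 0.25 uM importin beta in PBS, 1 mM DTT, 0.02% Tween-20, 0.1% BSA. Compound added 5 min; RanGTP-RCC1 (0.6 uM Ran, 2 mM GTP, 0.2 uM RCC1) then triggers release, read at 45 min.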
GLA inh pH 4.5: inhibitors of human alpha-galactosidase A at pH 4.5; P06280; purified enzyme, 4-MU-alpha-Gal fluorescence, pH 4.5; activity change, negative = inhibition, % at 105 µM; 230,000 tested, under 10 active; AID 1467; inconclusive = small, poorly fitted or top-dose-only inhibition, or a rising curve; inactive = flat fitted curve, though single readings scatter; no compound was filed as active;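 further: 0% = full activity with enzyme and -100% = basal without enzyme; dose as in the result columns while the protocol names 77 µM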
miR-21 reporter: miR-21 reporter, rising signal. HeLa miR-21 FLuc reporter, luciferase, 48 h. Potency, µM (series often up to 38.3 µM), inactives show at the highest dose reporter change, positive = more light. 340,000 tested, under 10 active; active = well fitted rising curve with a large enough effect; inconclusive = small, poorly fitted or top-dose-only effect; inactive = no such curve, though single readings can be large or run the other way;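 further: % of control where 0% means no effect; miR-21 action dims this reporter so a rising signal means less miR-21 action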
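HeLa cells stably expressing CMV-driven firefly luciferase with a downstream miR-21 binding sequence, endogenously expressing miR-21, were treated with titrations (up to about 40uM final) for 48 hours at 37 degree Celsius. Luciferase luminescence was read after lysis.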
Rango-impB inh: Rango-importin beta binding inhibition; 340,000 compounds, 0.031% hits; Potency, µM (series often up to 92.2 µM), without a hit: top-dose inhibition of complex formation; Rango CFP/YFP FRET sensor + importin beta, 45 min; AID 540263; Q14974; active = rising FRET ratio curve, often small or poorly fitted; inconclusive = mostly compound fluorescence or quenching in the first reads; inactive = flat curves in all reads;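 further: potency means the concentration at half of the fitted maximal effect; 0% = DMSO wells and 100% = buffer wells lacking importin beta; nearly all actives have a fitted effect of over 15% in size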
Target sequence (Q14974 whole entry, looked up): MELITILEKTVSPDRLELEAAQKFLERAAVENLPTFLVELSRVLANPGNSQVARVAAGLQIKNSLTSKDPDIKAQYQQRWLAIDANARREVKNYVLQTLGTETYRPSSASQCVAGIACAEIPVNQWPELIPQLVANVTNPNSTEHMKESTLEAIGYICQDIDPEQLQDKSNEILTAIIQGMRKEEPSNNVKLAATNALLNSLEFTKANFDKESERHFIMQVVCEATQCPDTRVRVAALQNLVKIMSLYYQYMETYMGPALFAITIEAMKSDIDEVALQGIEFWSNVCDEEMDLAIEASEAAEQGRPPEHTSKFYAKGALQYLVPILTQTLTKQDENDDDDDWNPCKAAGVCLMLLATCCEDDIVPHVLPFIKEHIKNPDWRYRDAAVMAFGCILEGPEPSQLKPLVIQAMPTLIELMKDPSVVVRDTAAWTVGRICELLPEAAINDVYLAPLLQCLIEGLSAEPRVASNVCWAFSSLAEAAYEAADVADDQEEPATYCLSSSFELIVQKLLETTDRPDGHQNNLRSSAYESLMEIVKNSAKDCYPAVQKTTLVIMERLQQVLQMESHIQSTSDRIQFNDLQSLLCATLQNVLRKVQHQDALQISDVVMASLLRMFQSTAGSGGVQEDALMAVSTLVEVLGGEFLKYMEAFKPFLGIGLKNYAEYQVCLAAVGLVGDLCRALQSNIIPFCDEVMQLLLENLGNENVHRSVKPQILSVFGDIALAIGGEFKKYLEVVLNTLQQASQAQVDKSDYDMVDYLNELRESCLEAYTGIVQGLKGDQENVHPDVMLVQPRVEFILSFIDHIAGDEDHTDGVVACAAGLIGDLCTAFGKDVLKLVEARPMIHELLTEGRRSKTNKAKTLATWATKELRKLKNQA
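Inhibition scored from the CFP 486 nm/YFP 530 nm FRET ratio 45 min after adding 0.125 microM importin beta to 50 nM Rango biosensor preincubated 5 min with compound (room temperature, PBS with DTT, Tween-20, BSA). No-importin wells as positive control.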
* = called active by the depositor; ? = inconclusive; · = not tested or not shown; & = joins results of further samples. These rows are one share of the data; rates above refer to the full screens.

SMILES	Rango release inh	GLA inh pH 4.5	miR-21 reporter	Rango-impB inh
CC(C(=O)Nc1cccnc1)C1Sc2ccccc2NC1=O (stereo not given)	-17.2%	-3.8	1.6%	?
Cn1c(CCC(=O)OCC(=O)NCc2ccc3c(c2)OCO3)nc(=O)c2ccccc21	18.5%	6.1	-5.1%	-1.1%
CCN(CC)c1ccc(/C=N/NC(=O)c2nnn(-c3nonc3N)c2-c2ccc(C)cc2)cc1	?	·	0.0%	1.5%
COCCOc1cc(NC(=O)CS(=O)CC(=O)N(C)C)c(Cl)cc1Cl (stereo not given)	24.7%	-17.0	1.5%	-1.7%
COC(=O)C1=C(C(=O)OC)[C@@H]2N(C)c3ccc(OC)cc3[C@@]23C[C@@H](C(=O)OC)N(C(=O)C2CCC2)C3=N1	21.8%	2.6&-3.7	-0.1%	-0.3%
COc1ccc(C(C(=O)NC(C)(C)C)N(C(=O)CNC(=O)c2cccs2)c2ccc(C)cc2)cc1OC (stereo not given)	4.8%	-12.1	-1.1%	-3.0%
Cn1c(=O)[nH]c(=O)c2c1nc(NCCCO)n2Cc1ccc(F)cc1	8.0%	-3.0	-6.5%	-2.9%
CC12CCC(C(=O)N(NC(=O)c3cccnc3)C1=O)C2(C)C (stereo not given)	1.6%	-6.3	-0.1%	-5.0%
CC[C@H]1OC(=O)[C@H](C)[C@@H](O[C@H]2C[C@@](C)(OC)[C@@H](O)[C@H](C)O2)[C@H](C)[C@@H](O[C@@H]2O[C@H](C)C[C@H](N(C)C)[C@H]2O)[C@](C)(O)C[C@@H](C)[C@@H]2N[C@@H](COCCOC)O[C@H]([C@H]2C)[C@]1(C)O	-12.1%	-0.6	-6.9%	2.0%
Cc1ccc(-c2nn(C)c(=O)c3ccccc23)cc1CO	5.5%	-1.8	-1.6%	1.5%
Cc1ccccc1CCN(C(=O)CN1C(=O)c2ccccc2S1(=O)=O)C(C(=O)NCC1CCCO1)c1ccncc1 (stereo not given)	-20.2%	2.6	-2.4%	8.4%
Cc1cccc(NC(=O)c2nc[nH]c2C(=O)N[C@@H](CCCCNC(=O)OC(C)(C)C)C(=O)OC(C)(C)C)c1	-6.3%	-20.7	21.1%	0.2%
CCc1ccc(-c2cc(C)no2)cc1S(=O)(=O)NCc1ccco1	2.7%	·	11.8%&-2.1%	-6.5%
Cc1[nH]c2ccc(C(C)C)cc2c1CC(=O)O	?	2.6	-6.4%	?
Cc1ccc(/C(O)=C2\C(=O)C(=O)N(CCc3c[nH]c4ccccc34)C2c2cccnc2)cc1 (stereo not given)	4.0%	-2.0	-0.6%	1.8%
O=C(Cn1cnc([N+](=O)[O-])n1)NC1CC1	1.2%	-22.0	0.4%	-0.3%
COc1ccc(NC(=O)/C(C#N)=C\c2cc(OC)c(OCc3ccc(C(=O)O)cc3)cc2Br)cc1	20.1%	2.7	-1.9%	5.2%
O=C(Nc1nc2ccccc2s1)c1cc2c(s1)-c1ccccc1OC2	?	-0.1	-23.6%	?
CCn1c(SCC(=O)Nc2nc3c(s2)CCCC3)nnc1-c1ccccc1	1.0%	?	8.5%	-5.8%
Cc1ccc(/C=C/C(=O)OCC(=O)NCc2ccc(Cl)cc2)o1	-6.8%	·	·	?
CCN(C(=O)COC(=O)CCC(=O)c1cccs1)c1c(N)n(Cc2ccccc2)c(=O)[nH]c1=O	6.2%	·	·	-2.6%
CC(=O)Oc1ccc(N(C(C)=O)S(=O)(=O)c2cc([N+](=O)[O-])ccc2C)cc1	-6.3%	3.7	-4.8%	-2.3%
CCC1Sc2ccc(S(=O)(=O)Nc3ccc(OC)c(OC)c3)cc2NC1=O (stereo not given)	-3.6%	·	17.4%	3.1%
CCOC(=O)Cc1csc(NC(=S)NC(=O)CC(C)C)n1	2.5%	0.2	5.8%	4.5%
N#C/C(=C/c1ccc(-c2ccc([N+](=O)[O-])cc2)o1)C(=O)Nc1nc(-c2cccs2)cs1	-0.3%	·	·	-0.5%

Continuation.
SMILES	Rango release inh	GLA inh pH 4.5	miR-21 reporter	Rango-impB inh
Cc1ccc2nnc(Cl)n2n1	-6.8%	-2.5	-9.2%	-1.2%
Cc1cccc(OCC(=O)N(Cc2cccs2)C2CCS(=O)(=O)C2)c1C (stereo not given)	5.4%	2.2	-0.2%	0.6%
Cc1ccc(C(=O)NCCc2nnc3ccc(SCC(=O)Nc4cc(C)on4)nn23)cc1	5.9%	-4.4	0.6%	2.7%
CCOC(=O)c1ccc(NC(=O)COc2ccc(S(=O)(=O)NC(C)C)cc2)cc1	18.3%	0.4	-0.4%	-1.3%
COc1cc(C(=O)N2CCN(S(=O)(=O)c3ccc(F)cc3)CC2)cc(OC)c1OC	0.1%	-2.2	-3.7%	-1.9%
CSc1cccc(NS(=O)(=O)c2ccccc2)c1	2.9%	4.5	-15.3%	5.5%
O=C(CCNS(=O)(=O)c1ccccc1)N1CCN(c2ccccc2F)CC1	15.9%	·	-7.7%	4.6%
CC(=O)c1c(C)nc2ccccc2c1N	0.7%	1.2	-2.6%	2.2%
CN(C)C(=O)COC(=O)c1cccc(CN2C(=O)c3ccccc3C2=O)c1	8.5%	-0.1	4.1%	-0.4%
Cc1ccc(C)c(NC(=O)CSc2nc(=O)n(CCN3CCOCC3)c3c2CCCC3)c1	5.0%	·	·	0.6%
Cc1cccc(OCCCC(=O)Nc2ccc(S(=O)(=O)Nc3ncccn3)cc2)c1C	-8.6%	·	-7.3%	0.0%
COc1ccc(COc2ccsc2C(=O)Nc2ccc(Cl)cc2)cc1	-8.6%	-4.1	-0.3%	1.4%
COc1ccc(NC(=O)C2CCCN(C(=O)c3ccc(Cl)cc3)C2)cc1S(=O)(=O)N(C)C (stereo not given)	1.8%	·	·	3.7%
O=C(COc1ccc(S(=O)(=O)N2CCCCC2)cc1)NCc1cccnc1	6.3%	4.2	2.6%	0.9%
CCC1CCCCN1C(=O)CSc1nc2c([nH]c3ccccc32)c(=O)n1C (stereo not given)	16.6%	-0.5	-4.3%	-5.1%
CC1Cc2cc(/C(O)=C3/C(=O)C(=O)N(CCCn4ccnc4)C3c3ccc(Br)cc3)ccc2O1 (stereo not given)	?	·	-3.9%	9.0%
CCCCNC(=S)N(CCCN(C)C)Cc1cc2cc3c(cc2[nH]c1=O)OCO3	-28.8%	·	-5.1%	?
COC(=O)C1=C(O)/C(=C\c2ccc(O)c(OC)c2)N=C1C	-20.9%	-15.0	0.1%	-0.3%
O=C(Cn1cccc1C(=O)c1ccccc1)NCCN1CCOCC1	-15.9%	-2.2	-3.7%	?
O=C(OCC(=O)N1CCN(C(=O)c2ccco2)CC1)c1ccccc1OCc1ccccc1	8.6%	-4.9	-4.7%	-2.3%
Cc1ccc(OCC(=O)Nc2ccon2)c([N+](=O)[O-])c1	7.8%	·	-61.8%	0.1%
Cc1cc(C)n(-c2nnc(C)n2/N=C/c2ccccc2OCc2ccccc2Cl)n1	-13.6%	-0.4	-6.6%	-0.4%
O=C(Nc1ccncc1)C1CCCN(S(=O)(=O)c2cccc3cccnc23)C1 (stereo not given)	2.5%	12.0	20.1%	-4.5%
O=C(CN1C(=O)NC2(CCCc3ccccc32)C1=O)Nc1cccc(S(=O)(=O)N2CCCCC2)c1 (stereo not given)	-8.3%	-5.9	9.0%	3.5%
COc1cccc(CNC(=O)CCCN2C(=O)C(c3ccccc3)Oc3cccnc32)c1OC (stereo not given)	-2.2%	·	-3.3%	5.4%

The listing continues.
SMILES	Rango release inh	GLA inh pH 4.5	miR-21 reporter	Rango-impB inh
COc1cc(C(C)=O)ccc1OCC(O)Cn1nc(C)c(Br)c1C (stereo not given)	2.7%	·	-2.4%	-1.2%
Cc1ccc(NC(=O)COc2ccccc2)cc1S(=O)(=O)N1CCCCCC1	3.8%	·	·	1.0%
CCCCN1Cc2c(nc3cc(-c4ccccc4)[nH]n3c2=O)C1=O	-8.2%	26.3	-1.3%	?
O=C(N/N=C/c1c[nH]c2ccccc12)c1ccc2c(c1)OCCO2	6.9%	-17.6	-10.3%	0.4%
COc1ccc(Cl)cc1C(=O)NNC(=O)c1ccc(F)c(S(=O)(=O)N2CCOCC2)c1	-18.2%	·	·	-1.7%
O=C(O)CN1C(=O)C2C3C=CC(C2C1=O)C1C(=O)N(CC(=O)O)C(=O)C31 (stereo not given)	-1.9%	·	0.6%	-1.1%
Cc1cc(C)c(C(N)=O)c(Cl)n1	-13.5%	11.4	3.9%	-4.1%
C=CCSc1nc2c(c(=N)n1CC=C)C1CCCC1S2 (stereo not given)	-1.5%	2.0	-6.3%	1.2%
CN(NC(=O)Nc1ccc(Cl)cc1)c1c(Cl)c(Cl)nn1C	-3.6%	-3.9	7.9%	-2.2%
CCN(C(=O)COC(=O)c1ccc(Cl)c(S(=O)(=O)N2CCCCC2)c1)C1CCS(=O)(=O)C1 (stereo not given)	0.5%	·	·	4.9%
COc1ccc(-c2cc3ccccc3oc2=O)cc1NC(=O)c1ccc([N+](=O)[O-])o1	2.0%	-4.6	-14.2%	-1.4%
COC(=O)[C@H](CCSC)NC(=O)Nc1ccc(OC)c(Cl)c1	-0.1%	3.8	-8.9%	0.1%
O=C1COCCOCCOCC(=O)NCCN1	3.4%	2.5	-2.3%	-2.5%
Cc1cccc(OCC(=O)O/N=C(\N)c2ccncc2)c1	13.0%	·	-37.4%	0.8%
COc1ccccc1N1CCN(S(=O)(=O)CCNC(=O)c2cc(=O)c3ccccc3o2)CC1	?	·	-0.9%&2.9%	-0.7%
S=C(NCCc1cnc[nH]1)NC1CCCC1	-0.7%	4.2	0.3%	-0.1%
COc1ccc(-c2nn(-c3ccccc3F)cc2CNCCn2nc(C)cc2C)cc1	20.5%	-10.4	-0.9%	-2.6%
CN(C(=O)c1cccc(NC(=O)Cc2cccc(NC(=O)C3CCN(S(=O)(=O)c4cccc([N+](=O)[O-])c4)CC3)c2)c1)C1CC1	11.1%	·	·	-1.5%
COc1ccc(NC(=O)CN(C)CC(=O)NC(=O)NC2CCCCC2)cc1	-14.1%	·	·	-0.4%
Cc1cc(NC(=O)CCC(=O)N(c2cccnc2)C(C(=O)NC2CCCC2)c2ccccc2F)no1 (stereo not given)	3.6%	-3.4	-5.1%	1.4%
C[C@H](NS(=O)(=O)c1ccc2c(c1)OCCCO2)C(=O)N1CCN(Cc2ccc(C#N)cc2)CC1	-1.4%	·	·	5.7%
Cc1cccc(NC(=O)c2cc(C)nc3ccccc23)c1	-4.5%	·	0.1%	?
Cc1nc(C(N)=O)c(N)n1CCc1ccccc1	-14.5%	·	1.5%	0.0%
Cn1c(=O)c2c(nc(NC3CCCCC3)n2Cc2ccccc2)n(C)c1=O	-2.3%	-8.7	-2.5%	0.2%
CC(/C=N/NC(=O)c1sc(N)nc1C)=C\c1ccccc1	-5.1%	-0.7	-53.9%	-4.6%

Further results follow:
SMILES	Rango release inh	GLA inh pH 4.5	miR-21 reporter	Rango-impB inh
CCOC(=O)COc1c(OC)cc(Cl)cc1C1NC(=O)NC(C)=C1C(C)=O (stereo not given)	8.3%	-7.6	-6.7%	8.6%
CCOC(=O)c1c(S(=O)(=O)NCCCc2ccco2)c(C)n(C)c1C	-19.3%	·	-7.6%	0.5%
Cc1ccc(S(=O)(=O)CCC(=O)Oc2ccc(-c3nnco3)cc2)cc1	-0.3%	·	·	2.4%
O=C(NCc1ccccc1Cl)C1CCCN1C(=O)NCc1ccccc1 (stereo not given)	-1.2%	·	0.1%	6.4%
CC(OC(=O)c1cccc(-n2cnnn2)c1)C(=O)Nc1ccc(F)cc1 (stereo not given)	-9.1%	·	9.2%	0.4%
CC1CN(C(=O)Cn2cc(SCC(=O)N3CCOCC3)c3ccccc32)CC(C)O1 (stereo not given)	1.1%	·	-12.0%	-4.3%
Cc1cc(C)cc(NC(=O)CN2C(=O)NC(Cc3c[nH]c4ccccc34)C2=O)c1 (stereo not given)	-4.7%	·	·	4.6%
COc1cc(C2CC(=O)Oc3cc(C)c(Br)c(C)c32)cc(OC)c1OC (stereo not given)	-2.0%	-12.1	·	0.4%

As entered above.
Rango release inh, `Cc1ccc(C(=O)NCCc2nnc3ccc(SCC(=O)Nc4cc(C)on4)nn23)cc1` stands at 5.9%
miR-21 reporter, `Cc1cccc(OCC(=O)O/N=C(\N)c2ccncc2)c1` stands at -37.4%

High-throughput results (PubChem BioAssay)
